# High-throughput results (PubChem)
# RGS16-Gao: modulators of RGS16 binding to Galphao, primary screen, biochemical, human proteins, multiplexed bead flow cytometry | binding response (% of control), % at 10 µM | AID 1441, 2008 | bead-based flow cytometry RGS16-Galphao binding, fluorescence; actives lie on both sides | Regulator of G-protein signaling 16 (Homo sapiens) + Guanine nucleotide-binding protein … | 220,000 tested, 0.38% active;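 active = below 25% or above 175%, edge rows of some plates excepted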;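 also: Galphao activated by GDP with aluminum fluoride before binding; 100% = wells without compound and 0% = beads without RGS; some results beyond the cut were filed as inactive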
# Target sequence (O15492 whole entry, looked up): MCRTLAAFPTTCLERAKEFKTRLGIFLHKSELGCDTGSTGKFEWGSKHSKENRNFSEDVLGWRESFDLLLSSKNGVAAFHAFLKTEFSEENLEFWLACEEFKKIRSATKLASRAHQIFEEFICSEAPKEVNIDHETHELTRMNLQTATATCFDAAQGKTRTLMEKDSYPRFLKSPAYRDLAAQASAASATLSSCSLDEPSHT
# Target sequence (P09471 whole entry, looked up): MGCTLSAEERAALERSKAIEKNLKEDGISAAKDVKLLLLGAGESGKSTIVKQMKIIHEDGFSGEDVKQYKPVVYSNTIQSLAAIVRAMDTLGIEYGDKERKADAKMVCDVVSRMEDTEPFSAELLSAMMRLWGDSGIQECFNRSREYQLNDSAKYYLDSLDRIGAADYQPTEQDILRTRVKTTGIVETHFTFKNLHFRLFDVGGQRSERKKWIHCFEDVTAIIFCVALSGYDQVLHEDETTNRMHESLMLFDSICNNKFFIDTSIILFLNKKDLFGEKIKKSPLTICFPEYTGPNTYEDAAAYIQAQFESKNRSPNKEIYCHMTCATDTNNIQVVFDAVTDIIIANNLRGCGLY
# Insulin prom inh: inhibitors of insulin promoter-driven GFP, primary screen, imaging, TRM-6 cells (human fetal islet line), eGFP reporter, cell count; reporter expression induced with tamoxifen; 130,000 tested, 0.9% active; inhibition, % at 2 µM;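 active = inhibition above the mean plus 3 SD, with well images judged a real hit on visual review, cut at about 60% in these data, passing the limit was not always enough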
# GALR2 agonist: GALR2 receptor agonists, primary screen, cell-based | activation, %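 (tested at 5 µM)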 | GALR2-expressing cells, agonist activation read-out | AID 803, 2007 | Galanin receptor type 2 (Homo sapiens), O43603 | 140,000 tested, 0.48% active;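 active = above mean plus 3 SD of all compounds, about 5% in these data, not always enough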;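 also: 0% = vehicle buffer wells and 100% = reference agonist at full effect; tested in CHO reporter cells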
# Target sequence (O43603 whole entry, looked up): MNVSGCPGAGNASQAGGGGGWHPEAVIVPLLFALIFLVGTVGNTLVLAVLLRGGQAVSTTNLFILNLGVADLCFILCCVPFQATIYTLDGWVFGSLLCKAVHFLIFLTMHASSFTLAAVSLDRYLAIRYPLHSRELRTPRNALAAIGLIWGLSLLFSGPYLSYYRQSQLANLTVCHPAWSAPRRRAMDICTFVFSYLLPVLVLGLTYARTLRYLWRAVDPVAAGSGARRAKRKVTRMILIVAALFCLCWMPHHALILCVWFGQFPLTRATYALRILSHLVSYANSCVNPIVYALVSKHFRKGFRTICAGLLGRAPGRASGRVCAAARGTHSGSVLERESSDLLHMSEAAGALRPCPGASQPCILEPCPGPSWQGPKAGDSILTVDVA
# HSV augment: enhancers of HSV replication in host cells, fold increase, host cell viability. HSV replication augmentation in cells. maximum fold increase. 220,000 tested, 0.005% active. AID 1956, 2009;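 active = peak rise of 1.5-fold or more in the series; tested in PC3 cells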;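 also: first round at 10 µM; read as green reporter fluorescence; hits show the peak of a series up to 25 µM; 1 = signal of infected wells without compound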
# PKD1 inh: inhibitors of human PKD1 kinase, biochemical, fluorescence polarization | Serine/threonine-protein kinase D1 (Homo sapiens), Q15139 | PKD1 kinase fluorescence polarization assay | inhibition, %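 (about 10 µM by stock and volumes)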 | AID 797, 2007 | 200,000 tested, 0.056% active;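 active = inhibition of 50% or more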;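 also: controls were vehicle for no effect and a reference inhibitor for full effect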
# Insulin prom inh cell count: second read-out of Insulin prom inh, no call of its own (marks repeat the call); normalized cell count, %; measured here: cell count, toxicity; reference of the scale not given here;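 cells exposed to compound for 48 h; stained nuclei by imaging scaled within each plate; lower means fewer cells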
# HSV augment primary fold: also measured in HSV augment; calls as there; fold increase; compound at 10 µM; measured here: primary screen fold increase 10 uM; tested in PC3 cells;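 GFP signal in the first replicate; 1 = infected wells without compound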
# An asterisk follows results filed as active; i = inactive; . = not tested or not shown; & = joins results of further samples. Compounds as they come, and some 1.3% of all compounds hit somewhere here.
SMILES,RGS16-Gao,Insulin prom inh,Insulin prom inh cell count,GALR2 agonist,HSV augment,HSV augment primary fold,PKD1 inh
O=C(c1ccc(N2C(=O)C3CC=C(Cl)CC3C2=O)cc1)N1CCCCC1 (stereo not drawn),90,-32,146,-1.2,i,0.95,-5
Cc1ccc(S(=O)(=O)N2CCN(C(=O)c3cc4c(C)nn(-c5ccccc5)c4s3)CC2)cc1,102,.,.,-1.2,i,1.1,-1
Cc1nn(CC(=O)Nc2ccc(Cl)cn2)c(C)c1[N+](=O)[O-],113,8,81,-1.6,i,0.9,-2
CCOc1ccccc1-c1nc(-c2ccncc2)no1,97,-20,146,-1.2,i,1,-5
COc1ccc(C(=O)N/C(=C\c2cccs2)c2nc3ccccc3[nH]2)cc1OC,135,20,68,-0.1,i,0.78,-3
CC(C)C(=O)N1CCN(c2ccccc2NC(=S)NC(=O)c2cccs2)CC1,104,.,.,.,i,0.65,6
O=C(Nc1ccc(Cl)cc1)N1CCSCC1,100,22,154,-0.3,.,.,-3
CCN(CC)S(=O)(=O)c1ccc(Cl)c(C(=O)NCc2ccco2)c1,106,.,.,.,i,0.93,-5
CN1[C@@H]2CC(OC(=O)[C@H](CO)c3ccccc3)C[C@H]1[C@@H]1O[C@@H]12 (stereo partly drawn),100&105,24&-114,141&76,-0.5&-0.5,i,0.85&0.84,-3&4
Cc1ccc(NC(=S)N(CCN2CCOCC2)Cc2cc3cc4c(cc3[nH]c2=O)OCO4)cc1,100,.,.,.,i,0.88,7
Cc1ccc(N2C(=O)C3C(C2=O)C2C=CC3C23CC3)cc1 (stereo not drawn),102,.,.,-0.3,i,0.84,-9
CC(c1nnc(SCC(=O)Nc2sccc2C#N)n1-c1ccc(Cl)cc1)N(C)C (stereo not drawn),86,2,116,-0.1,i,0.88,1
Cc1cccc(C(=O)Nc2nnc(C3=COCCO3)o2)c1,103,-58,74,.,i,0.96,-3
Cc1cc(N)n2ncc(-c3ccccc3)c2n1,103,87*,147*,0.5,i,0.99,5
Cc1cc(/C=N/NC(=O)c2ccc(O)cc2)c(C)n1CC(C)C,95,.,.,.,i,0.96,.
Cc1ccc2nc(Cl)c(C3CC(c4ccco4)=NN3S(C)(=O)=O)cc2c1 (stereo not drawn),100,.,.,.,i,0.94,.
O=C1/C(=C\c2ccco2)SC(=S)N1Cc1ccccc1,98,-150,118,-3.3,i,1.1,-10
O=C(NC(=S)N1CCN(CCO)CC1)C12CC3CC(CC(C3)C1)C2,99,29,108,.,i,1.2,3
Cc1csc(SCC(=O)NCc2ccccc2Cl)n1,97,21,138,.,i,0.94,-7
CC(C)NC(=S)N/N=C/c1ccc2c(c1)OCCO2,115,.,.,-0.9,i,0.98,-3
CCN1CCN(C(=S)c2ccc(OCC(=O)NCc3ccccc3)cc2)CC1,83,0,111,.,i,1.1,-8
O=C(NCc1ccccn1)c1ccc(CNS(=O)(=O)c2cccc(C(F)(F)F)c2)cc1,100,.,.,.,i,1,0
CCOC(=O)c1c(NC(=O)c2cccc(N3C(=O)CCC3=O)c2)sc(C)c1C,103,0,65,-2.2,i,0.96,-10
CC[n+]1c(/C=C/Nc2ccccc2)oc2ccc(OC)cc21,108,-456,170,.,i,1,2
O=C(N/N=C/c1ccccn1)c1cc(-c2cccc3ccccc23)n[nH]1,17,12,92,-0.1,i,0.96,1
Cc1nc2sc(C(c3ccccc3)N3CCOCC3)c(O)n2n1 (stereo not drawn),104,50,175,0.1,i,0.77,-8
O=C1/C(=C/c2cccs2)SC(=S)N1c1cccc(O)c1,84,.,.,.,i,1,.
O=[N+]([O-])c1cc2c(cc1Br)CCN2,100,.,.,.,i,0.88,2
Cc1nc(N2CCN(Cc3ccccc3)CC2)c(C#N)c2c1COC(C)(C)C2,107,21,69,1.6,i,1,-2
Cn1c(=O)c2c(nc(N/N=C/c3ccc(OC(=O)c4ccco4)cc3)n2Cc2ccc(F)cc2)n(C)c1=O,72,.,.,-2.1,i,0.78,1
CCOC(=O)N1CCC(NC(=O)c2cc(C(=O)Nc3ccc(S(=O)(=O)N4CCCCC4)cc3)ccc2CO)CC1,111,.,.,.,i,1,1
CC(C)OC(=O)c1cc(C(=O)c2cc(Br)ccc2O)coc1=N,101,-127,123,.,i,1.1,-9
Cc1ccccc1C(=O)Nc1ccccc1C(=O)NCc1ccccc1,101,-42,97,-2.1,i,0.9,6
CCOC(=O)COc1ccc2cc(C(=O)OCC)c(=O)oc2c1,101,5,171,-1.0,.,.,1
COC(CNC(=O)C1CC(=O)N(CCc2ccccc2)C1)OC (stereo not drawn),113,-45,118,-0.3,i,1.1,-4
O=C(NCN1CCN(c2ccccn2)CC1)c1cnccn1,110,-10,80,-1.0,i,1,2
Cc1cc(=O)oc2cc(OCCCC[n+]3ccccc3)ccc12,99,.,.,.,i,1,.
CC1(C)CC(=O)c2sc(NC(=O)c3ccc4ncsc4c3)nc2C1,107,.,.,-1.9,i,0.84,5
CCOC(=O)NNC(=O)CCn1c2c(c3ccccc31)CCCC2,101,.,.,.,i,1,.
CCN(CC)S(=O)(=O)c1ccc(OCC(=O)NCc2ccccc2)cc1,97,.,.,-2.0,i,0.94,-3
CCC(C)n1nnc2c(=O)oc3ccccc3c21 (stereo not drawn),104,26,105,-1.9,i,1.1,-10
Cc1ccc2oc(-c3ccc(NC(=O)c4ccc5c(c4)OCO5)cc3)nc2c1,98,-264,46,-0.6,i,0.6,0
O=C(/C=C/c1ccc(S(=O)(=O)N2CCOCC2)cc1)OCC(=O)c1ccc([N+](=O)[O-])cc1,94,.,.,.,i,0.97,.
Cc1ccc(Nc2nnc(SC3CCOC3=O)s2)cc1 (stereo not drawn),102,.,.,-0.5,i,1.2,7
O=C(CCN1C(=O)/C(=C\c2cccs2)SC1=S)NC1=NCCS1,101,-20,141,-1.9,i,0.95,8
CCOc1ccc(N(CC(=O)NC2CCCC(C)C2C)S(=O)(=O)c2c(C)noc2C)cc1 (stereo not drawn),103,.,.,-1.3,i,1,-6
COc1ccc(S(=O)(=O)Nc2nnc(C(C)C)s2)cc1,98,-50,104,-3.4,i,0.9,-11
O=C(COC(=O)CNC(=O)c1ccco1)Nc1ccccc1OC(F)F,108,22,129,.,i,0.81,-4
Nc1nc(SCC(=O)NCCO)nc2sc3c(c12)CCCC3,105,.,.,.,i,0.99,3
Cc1ccc(NS(=O)(=O)c2ccc(Br)s2)cc1S(=O)(=O)N1CCOCC1,96,-21,123,.,i,1,10

# Next part; it opens with the two that closed the last part.
SMILES,RGS16-Gao,Insulin prom inh,Insulin prom inh cell count,GALR2 agonist,HSV augment,HSV augment primary fold,PKD1 inh
Nc1nc(SCC(=O)NCCO)nc2sc3c(c12)CCCC3,105,.,.,.,i,0.99,3
Cc1ccc(NS(=O)(=O)c2ccc(Br)s2)cc1S(=O)(=O)N1CCOCC1,96,-21,123,.,i,1,10
O=C1CSC(c2cn(-c3ccccc3)nc2-c2cccs2)N1CC1CCCO1 (stereo not drawn),113,-54,87,0.1,i,0.98,-6
CCOc1cc(/C=C2\SC(=N)N(c3nonc3N)C2=O)ccc1OCC(N)=O,103,-3,114,0.1,i,1,-1
Cc1nc(N)sc1-c1nnc(SCC(=O)Nc2nccs2)n1C,98,48,146,-2.3,i,1.1,-6
CC1(C)CC2(CC(c3ccccc3F)c3cc(Cl)c(O)cc3O2)NC(=S)N1 (stereo not drawn),100,25,99,.,i,0.82,9
COc1ccccc1CNC(=O)C/C(C)=N/NC(=O)Cc1ccccc1,114,-16,150,-3.2,i,0.91,-5
COc1ccc(OC)c(-n2nnnc2SCC(=O)Nc2ccc(C(=O)N3CCCCC3)cc2)c1,100,.,.,1.6,i,0.71,6
Cc1cc[n+](CC(=O)c2cccs2)cc1,92,12,61,-0.9,.,.,-4
CSC1=NCCN1C(=O)C(C)Oc1ccccc1 (stereo not drawn),94,.,.,-0.9,i,1,-7
Cc1ccc(C(=O)CSc2ncn[nH]2)cc1,114,57,93,-2.3,i,0.78,-7
Cc1ccc(C2(c3noc(CN(C)CC4COCCO4)n3)CCCC2)cc1 (stereo not drawn),98,.,.,.,i,0.99,-6
CC(c1ccon1)N(C)Cc1cn(C)nc1-c1cccc(Cl)c1 (stereo not drawn),99,.,.,.,i,1,-4
CCOC(=O)CNC(=O)CN1C(=O)CCS(=O)(=O)c2ccccc21,100,4,193,-1.9,i,0.99,0
CCCNC(=O)C/C(C)=N/NC(=O)COc1ccc(C)cc1Br,92,37,58,-0.8,i,0.93,-7
O=C(Nc1cc(S(=O)(=O)N2CCCC2)ccc1Cl)C1=COCCO1,103,4,109,1.9,i,0.53,-1
Cc1ccc(NC(NC(=O)Cc2ccccc2)C(Cl)(Cl)Cl)cc1 (stereo not drawn),103,.,.,0.3,i,1,-8
COc1cccc2c(=O)n(CC(=O)N3CCc4ccccc43)ccc12,103,.,.,-1.8,i,0.69,1
CC(C)(C)C(=O)CC1(O)C(=O)N(Cc2ccccc2)c2ccccc21 (stereo not drawn),120,-10,108,-1.2,i,1,3
CCOC(=O)c1ccc(OC)c(OC)c1Cl,91,.,.,.,i,1.2,.
O=C(CN1C(=O)C2C3C=CC(C3)C2C1=O)Nc1ccc2c(c1)OCCO2 (stereo not drawn),103,18,95,-2.0,i,1,20
Cn1c(=O)c2c(nc(NCCCO)n2Cc2cccc(C(F)(F)F)c2)n(C)c1=O,75,-211,96,-3.7,i,0.97,-11

# The list goes on, starting with the last five of the part before.
SMILES,RGS16-Gao,Insulin prom inh,Insulin prom inh cell count,GALR2 agonist,HSV augment,HSV augment primary fold,PKD1 inh
COc1cccc2c(=O)n(CC(=O)N3CCc4ccccc43)ccc12,103,.,.,-1.8,i,0.69,1
CC(C)(C)C(=O)CC1(O)C(=O)N(Cc2ccccc2)c2ccccc21 (stereo not drawn),120,-10,108,-1.2,i,1,3
CCOC(=O)c1ccc(OC)c(OC)c1Cl,91,.,.,.,i,1.2,.
O=C(CN1C(=O)C2C3C=CC(C3)C2C1=O)Nc1ccc2c(c1)OCCO2 (stereo not drawn),103,18,95,-2.0,i,1,20
Cn1c(=O)c2c(nc(NCCCO)n2Cc2cccc(C(F)(F)F)c2)n(C)c1=O,75,-211,96,-3.7,i,0.97,-11
Cc1ccc(Cn2cccc2C2=NC(C)CO2)cc1 (stereo not drawn),136,16,134,-2.5,i,1.1,7
CCn1c(SCC(N)=O)nnc1-c1ccc2[nH]c(C)c(C)c2c1,101,54,59,-0.7,i,0.89,-12
CN(C)c1ccc(NC2=C(Cl)C(=O)c3ccccc3C2=O)cc1,88,-50,32,-0.4,i,0.56,-1
S=C(Nc1cccc(Br)c1)N1CCn2cccc2C1c1cccnc1 (stereo not drawn),91,-25,174,.,i,0.86,-6
Cc1ccc(-c2noc(CN(C(=O)C34CC5CC(CC(C5)C3)C4)C(C)C)n2)cc1,96,-69,88,-2.6,i,1,-8
Cc1nc2c3ccccc3n(CCN3CCCCC3)c2s1,101,-138,138,-2.2,.,.,-2
CCc1nnc(SCC(=O)Nc2ccccc2)nc1CC,101,-36,129,-0.4,i,0.8,8
O=C(Nc1nnc(SCC(=O)N2CCCCC2)s1)c1cccs1,121,-62,165,-2.0,i,1.1,-4
COc1ccc(C(OCC2CO2)c2ccc(OC)cc2)cc1 (stereo not drawn),101,77*,108*,.,i,0.91,6
CCC(C(=O)c1ccc2ncccc2c1)c1ccccc1 (stereo not drawn),102,.,.,-0.2,i,0.93,1
COC(=O)c1nnn(CC(=O)Nc2cccc(Cl)c2C)c1C(=O)OC,103,-3,59,-0.9,i,1.1,2
CC(=O)c1cccc(NC(=O)c2ccc(N(Cc3ccccc3)S(C)(=O)=O)cc2)c1,101,-179,118,-3.2,i,0.75,0
COc1cccc(N(C(=O)CNC(=O)c2ccco2)C(C(=O)NC2CCCC2)c2ccncc2)c1 (stereo not drawn),107,10,108,-3.4,i,0.93,-10
Cc1cccc(N(C)C(=O)c2cc3cc4ccc(C)cc4nc3o2)c1,99,13,83,0.6,i,0.91,2
O=c1c2oc3ccccc3c2[nH]c(=S)n1-c1ccc(F)cc1,92,0,120,.,i,0.95,-5
